# Compound activity (PubChem)
# BasE inh: BasE siderophore enzyme inhibitors, primary screen, biochemical, Acinetobacter baumannii ATCC 17978, fluorescence polarization; purified BasE, fluorescence polarization binding displacement; inhibition, % (no concentration beside the values); actives 0.1% (n = 84,000);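 active = both replicates above 25% with normal brightness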;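 also: 0% = negative plate control signal and 100% = positive plate control signal; stock transfer was 100 nL into about 30 µL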
# KSHV LANA nucl: inhibitors of KSHV LANA-nucleosome binding, primary screen, biochemical, fluorescence polarization, FITC-LANA1-23, chicken nucleosomes | AID 720717, 2013 | FITC-LANA1-23 / chicken nucleosome fluorescence polarization; hits give low values | actives 0.3% (n = 51,000) | z-score (concentration not given with the values);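 active = both repeat wells score below -2 in polarization z-score versus plate sample wells, excluding overly bright wells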;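 also: 100 nL library stock added to about 30 µL; numbers are from one replicate; some results filed as inactive read as strong as hits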
#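 Assay system: purified chicken nucleosomes with FITC-labelled LANA N-terminal peptide (1-23) / Probe or stimulus: 50 nM FITC-LANA1-23 probe / Compound dosing: pin-transferred compound, 100 nL / Times: compound with peptide–nucleosome mix 10–45 min at room temperature / Technique: fluorescence polarization, 480 nm excitation, 535 nm parallel and perpendicular emission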
# Active calls of the source: *; · = not tested or not shown; & = joins results of further samples.
SMILES,BasE inh,KSHV LANA nucl
CC(=O)N1CCN=C1SCc1ccc(C(F)(F)F)cc1,-2.2,-0.45
CC(C)C(=O)Nc1c(C(=O)N2CCCCCC2)oc2ccccc12,0.6,·
c1ccc(-c2nc(-c3ccc4c(c3)OCO4)cs2)cc1,-0.8,·
CCC1CCCCN1C(=O)CSc1ncc(-c2ccc(F)cc2)n1CC (configuration not stated),-2.3,0.3
Brc1ccc(-c2csnn2)cc1,·,-0.25
O=C(O)CC(C(=O)O)N1C(=O)/C(=C\c2ccco2)SC1=S (configuration not stated),2.8,-1.7
O=C1OC(/C=C/c2ccc(Cl)cc2)=NC/1=C/c1ccco1,-2.8,0.24
CCOC(=O)c1sc2nc(CN3CCC(C)CC3)[nH]c(=O)c2c1C,-1.1,·
CC(C)N(C(=O)C[n+]1cccc(/C=N/O)c1)C(C)C,-3.4,0.76
S=c1[nH]c2cc(Cl)c3cccnc3c2o1,51*,2.5
CCN(C)C(=O)Oc1cccc([C@H](C)N(C)C)c1,·,-0.69
O=C(CSc1nnc(Cc2cc(=O)[nH]c(=O)[nH]2)n1-c1ccccc1)NCc1ccco1,1.2,0.73

# Another view of part of the listing above.
# Below each compound: BasE inh, KSHV LANA nucl
CCOC(=O)c1sc2nc(CN3CCC(C)CC3)[nH]c(=O)c2c1C
    -1.1, ·
O=C(O)CC(C(=O)O)N1C(=O)/C(=C\c2ccco2)SC1=S (configuration not stated)
    2.8, -1.7
S=c1[nH]c2cc(Cl)c3cccnc3c2o1
    51*, 2.5
CC(=O)N1CCN=C1SCc1ccc(C(F)(F)F)cc1
    -2.2, -0.45
O=C(CSc1nnc(Cc2cc(=O)[nH]c(=O)[nH]2)n1-c1ccccc1)NCc1ccco1
    1.2, 0.73
CC(C)N(C(=O)C[n+]1cccc(/C=N/O)c1)C(C)C
    -3.4, 0.76
CC(C)C(=O)Nc1c(C(=O)N2CCCCCC2)oc2ccccc12
    0.6, ·

# Further structures follow:
SMILES,BasE inh,KSHV LANA nucl
Cc1ccc(NS(=O)(=O)c2cc(-c3cc(C)no3)ccc2C)nc1,-4.2,·
Cc1cc(C(=O)COC(=O)/C=C/c2ccc(S(=O)(=O)N3CCOCC3)cc2)c(C)n1C,-0.5,·
CCOC(=O)N1CCN(Cc2nnc(-c3cccc(Br)c3)o2)CC1,-0.8,-0.16
COc1cccc(NC(=O)c2cnccc2C(F)(F)F)c1,0.1,·
O=C(CN1CCCCCCC1)N/N=C/c1cccs1,-0.3,0.074
CN1c2ccccc2-c2nc3ccccc3n2C1c1ccccc1 (configuration not stated),0.4,·
O=c1ccc(-c2nc3ccccc3[nH]2)n[nH]1,0.1,2.5
CCc1ccc(N2C(=O)N(CC(=O)N3CCCCCC3)c3ccccc3S2(=O)=O)cc1,-2.7,0.47
Cc1ccc(/C=C/C(=O)OCC(=O)c2cc(C)n(CC3COc4ccccc4O3)c2C)o1 (configuration not stated),0.7,·
CC(/C=C/c1ccco1)=N\NC(=O)Cc1cccc2ccccc12,-5.4,1.6
C1CNCCN1,-2.1,1.5&-0.29
COc1ccc(CSC2=NCN(C3CC(C)CC(C)(C)C3)CN2)cc1 (configuration not stated),1.5,·

# Some of the entries above in another layout.
structure	BasE inh	KSHV LANA nucl
O=c1ccc(-c2nc3ccccc3[nH]2)n[nH]1	0.1	2.5
CCc1ccc(N2C(=O)N(CC(=O)N3CCCCCC3)c3ccccc3S2(=O)=O)cc1	-2.7	0.47
Cc1ccc(/C=C/C(=O)OCC(=O)c2cc(C)n(CC3COc4ccccc4O3)c2C)o1 (configuration not stated)	0.7	·
CC(/C=C/c1ccco1)=N\NC(=O)Cc1cccc2ccccc12	-5.4	1.6
C1CNCCN1	-2.1	1.5&-0.29
COc1ccc(CSC2=NCN(C3CC(C)CC(C)(C)C3)CN2)cc1 (configuration not stated)	1.5	·

# (continued)
SMILES,BasE inh,KSHV LANA nucl
CCOC(=O)C1=C(C)NC(=O)NC1C1CC=CCC1 (configuration not stated),-1.4,0.004
COC(=O)c1ccc(CC(C#N)(Cc2ccc(C(=O)OC)o2)C(=O)Nc2ccc(OC)c(OC)c2)o1,1.0,·
COc1cc(N=CC2=C(O)c3ccccc3C2=O)cc(OC)c1,1.6,·
Cc1[nH]c2ccccc2c(=O)c1Br,-1.2,0.071
COc1cc(C=NCCN=Cc2ccc(O)c(OC)c2)ccc1O,-1.0,0.57
C=CCn1c(SCC2CNC(c3ccc(N(C)C)cc3)O2)nnc1C1CCCCC1 (configuration not stated),0.3,·
COC(=O)c1c(-c2c(Cl)cccc2Cl)noc1C(=O)N/N=C/c1ccccn1,0.9,-3.4
CCCN1CCN(C(=O)c2c(C)nn(Cc3ccc(C)cc3)c2Cl)CC1,1.9,·
C=CCN1C(=O)N(c2ccccc2)C(=O)C1CC(=O)Nc1ccc(CC)cc1 (configuration not stated),0.0,-0.71
COc1cccc(CNC(=O)Cc2cccc(OC)c2)c1,-1.0,·
C=CCNC(=O)c1ccc2c(c1)C1C3CCC(C3)C1C(c1ccccc1)N2 (configuration not stated),0.1,·
O=C(/C=C/c1ccc(S(=O)(=O)N2CCCCCC2)cc1)N1CCN(C(=O)c2ccccc2)CC1,1.9,·
O=C(CC(NCc1ccco1)C(=O)O)Nc1cccc(Cl)c1 (configuration not stated),2.0,-1.5
CCCn1c(C)cc(C(=O)CN2C(=O)NC3(CCCCCC3)C2=O)c1C,-3.5,·
COC(=O)c1ccccc1Oc1ccccc1OC,3.5,-1
COc1cccc(C2CC(=O)NC(NC(=O)c3cccc(Cl)c3)=N2)c1OC (configuration not stated),0.9,-0.54
COCn1c(=O)[nH]c2ccccc21,0.4,0.01
CC(C)/C=C1\CC/C(=C\c2ccccn2)C1=O,2.9,0.36
CCOC(=O)/C=C1\SCC(=O)N1Cc1nc(N)nc(Nc2ccccc2C)n1,2.9,·
O=C(O)c1ccc(-n2cnc3ccccc32)cc1,29,·
CCN(CC)c1nc(=S)nc(NC(C)(C)C)[nH]1,-2.5,0.55
O=C(O)CNS(=O)(=O)c1cccs1,-2.6,2.8
O=CN1CCN(S(=O)(=O)c2ccc(F)c(F)c2)CC1,-0.1,·
CCc1cccc2c(C(=O)COC(=O)c3c(C)noc3C)c[nH]c12,1.9,·
CCN(CC)CCN1C(=O)c2ccccc2NC1c1ccc(Br)cc1 (configuration not stated),-2.4,·
N#CC(C#N)=CN1CCC(C(=O)c2ccccc2)CC1,-0.5,-0.99
Cc1cc(NC(=O)CSC2=NN3CCCC(=O)N=C3S2)no1,2.9,-0.58
CC1=C(C(=O)c2ccccc2)C(c2ccccc2C)NC(=O)N1 (configuration not stated),-3.0,·
O=C(Nc1ccc(Cl)c(Cl)c1)N1CCC(O)CC1,-1.3,·
C=CCNc1nnc(SCC(=O)N2CCC(C(N)=O)CC2)s1,0.2,-1.2
Nc1nc(CCOc2ccc(F)cc2)cs1,1.2,-0.23
COc1ccccc1C(=O)N/C(=C\c1ccccc1)C(=O)O,0.8,·
CC(C)COC(=O)/C=C/c1ccccc1,4.5,-0.34
COc1c(Cl)cc(C(=O)N2N=N2)cc1Cl,1.4,0.4
CSc1nnc(C(C)(C)C)c(=O)n1/N=C/c1c(O)ccc2ccccc12,2.0,·
COC(=O)c1cccc(OCC(O)CNC2CCN(Cc3ccccc3)CC2)c1 (configuration not stated),-2.6,·

# Quoted at random: 5 records from the list, in no set order.
SMILES,BasE inh,KSHV LANA nucl
COc1c(Cl)cc(C(=O)N2N=N2)cc1Cl,1.4,0.4
O=C(Nc1ccc(Cl)c(Cl)c1)N1CCC(O)CC1,-1.3,·
CC1=C(C(=O)c2ccccc2)C(c2ccccc2C)NC(=O)N1 (configuration not stated),-3.0,·
CSc1nnc(C(C)(C)C)c(=O)n1/N=C/c1c(O)ccc2ccccc12,2.0,·
Cc1cc(NC(=O)CSC2=NN3CCCC(=O)N=C3S2)no1,2.9,-0.58

# Next compounds:
SMILES,BasE inh,KSHV LANA nucl
COc1ccc(C(=O)ON=C2CSC(C)SC2)cc1 (configuration not stated),-0.6,-0.062
O=C(NC(=O)c1ccccc1)Nc1ccccc1,0.2,·
CC(CCc1ccccc1)NC(=O)CN1CCN(S(=O)(=O)c2cccs2)CC1 (configuration not stated),-1.5,·
COCC(C)NCc1cccc(Oc2ccccc2)c1 (configuration not stated),-2.8,-0.25
O=c1ccc(-c2ccncc2)n[nH]1,-0.3,·
O=C(NCc1ccc2c(c1)OCO2)C1CC(=O)N(C2CCCCC2)C1 (configuration not stated),0.0,-1.1
N#CCn1ccccc1=O,0.1,-1.5
O=C(O)c1cc(S(=O)(=O)NCCN2CCOCC2)ccc1O,-0.3,·
O=C(NCc1cccc(CNC(=O)NCc2ccco2)c1)NCc1ccco1,-2.6,·
CCC(=O)Nc1ccc(C(=O)Nc2c[nH]c(=O)[nH]c2=O)cc1,0.7,0.11
N#CC(C(=O)c1cccc(C(F)(F)F)c1)=C1SCCCCS1,2.0,·
Cc1ccc(C2CC(=O)NC(SCc3ccccc3)=C2C#N)o1 (configuration not stated),0.2,-0.24
CC(=O)Nc1ccc(N2Cc3ccccc3C2)cc1,-1.9,-0.27
CC(CCc1ccccc1)NC(=O)C(C)N1CCNC(=O)C1 (configuration not stated),0.4,·
Cc1ccc(S(=O)(=O)N2CCC(O)CC2C)cc1 (configuration not stated),6.6,-0.37
O=C1OC(c2ccc(Br)cc2)=N/C1=C\N1CCCCC1,-0.8,0.17
CC(C)NCC(O)COc1ccc(S(=O)(=O)N2CCOCC2)cc1 (configuration not stated),2.8,·
Cc1cc(C)c(C(N)=O)c(=O)[nH]1,-0.3,·
O=C(OCCOc1cccc(Cl)c1)C1CCN(S(=O)(=O)c2cccs2)CC1,-0.2,·
Cc1cc(=O)c2cc(N)ccc2[nH]1,2.1,-0.24
CN(C)S(=O)(=O)c1cccc(COC(=O)/C(=C/c2cccs2)c2cccs2)c1,1.2,·
CCCCN1C(=O)c2ccccc2C1C(=O)NC1CCCC1 (configuration not stated),2.1,0.71
Cc1cc(OCc2c(C)c(C)c(C)c(C)c2C)c2cc(Cl)ccc2n1,1.1,·
Cc1ccc(C(c2sc3ncnn3c2O)N2CCN(CCO)CC2)cc1 (configuration not stated),0.7,-0.35
C=CCN1C(=O)/C(=C/c2c(N3CCCCC3)nc3ccccn3c2=O)SC1=S,9.3,·
O=c1c(C=Nc2ccccc2)c(O)c2c(n1-c1ccccc1)CCCC2,0.5,·
COC(CNS(=O)(=O)c1cn(C)c(=O)n(C)c1=O)OC,-3.4,2.6
CC1(C)CC2CC(C)(CN2C(=O)COCc2cc(-c3ccco3)on2)C1 (configuration not stated),25,-2.3
Cc1ccccc1-c1nc(CS(=O)(=O)CC(=O)N(C)Cc2ccccc2)c(C)o1,0.7,-0.34
Cc1ccc(NC(=O)COC(=O)CCc2ccco2)cc1C,-2.1,·
COC(=O)c1ccc(-c2ccco2)n1CC(=O)NCc1ccc(Cl)cc1,0.9,-0.14
O=c1[nH]c2ccccc2c(=O)n1CCSc1ccccc1,1.4,·
Cc1ccc(-c2csc(NC(=O)Nc3ccccc3)n2)cc1,-1.4,·
O=C(N/N=C/c1ccc(N2CCCCC2)o1)c1ccco1,3.6,-1.1
O=C(Nc1ccccc1)Nc1cccc(Cl)c1,-0.2,-1
Cc1ccccc1-c1noc(-c2ccccc2C)n1,5.6,-0.24
CC(NC(=O)CC1=NS(=O)(=O)c2ccccc2N1)c1ccccc1 (configuration not stated),3.0,0.25
CC1(C)Cc2c(c(N3CCOCC3)nc3sc4c(ncn5c(SCC(=O)NCc6ccco6)nnc45)c23)CO1,1.4,-0.28
O=S(=O)(c1cccc(C(F)(F)F)c1)N1CCCN(CCc2ccccc2)CC1,-1.9,3.3
COc1ccccc1NC(=O)CSCC(N)=O,-0.7,-0.4
COc1ccc(Cl)cc1S(=O)(=O)N(C)CC(N)=O,1.7,-0.47
O=S(=O)(NCc1ccco1)c1cccc(S(=O)(=O)N2CCCCC2)c1,-2.2,1.1
CCc1ccc(Nc2ncnc3c2cnn3C)cc1,-1.1,-1.3
O=C(CC1(O)C(=O)Nc2ccccc21)CC1(O)C(=O)Nc2ccccc21 (configuration not stated),3.9,·
COc1ccccc1NC(=S)NC(c1ccccc1)c1ccccc1,2.3,·
c1cnc2c(OCc3nc4ccccc4[nH]3)cccc2c1,-3.5,0.024
CC(=O)O[C@]1(C(=O)CO)CCC2C3CCC4=CC(=O)CCC4(C)C3C(O)CC21C (some centres not stated),0.5,-0.37
COc1ccc(CC(=O)N2CCc3ccccc3C2)cc1,1.5,·
O=C(Cc1nnc(-c2ccc(Br)cc2)o1)NCCc1ccccc1,-3.0,0.39
NNC(=O)CC1=NNC(=O)C1,-0.5,·
C=C1CC[C@H](O)C/C1=C/C=C1\CCC[C@]2(C)[C@@H]([C@H](C)CCCC(C)(C)O)CC[C@@H]12,-2.6,0.055&-0.32
Cc1cc(C)n2cc(CSC(C)C(=O)O)nc2n1 (configuration not stated),-0.5,·
O=C(O)CCC(=O)Nc1nccs1,-1.1,·
CN(C)c1ccsc1C(=O)NN,2.1,·
O=C(CC1CCCCC1)Nc1cccnc1,-1.3,-0.85
CC(C(=O)Nc1ccc2c(c1)OCO2)N(C)CC1COc2ccccc2O1 (configuration not stated),0.5,·
COc1cccc(Nc2nc(C3(C)CC4(CC(C)OC4=O)C(=O)O3)cs2)c1 (configuration not stated),1.6,-1.3
CCc1n[nH]c(=O)c2cc3cc(OC)ccc3n12,0.4,-1.9
COC(=O)c1cc(OC)c(OC)cc1NCC(=O)Nc1ccc(C)cc1,1.5,·
O=C(COC(=O)c1ccco1)NC(c1ccccc1)c1ccccc1,-0.1,·
COc1ccc(CCNC(=O)Nc2ccccc2C)cc1OC,0.5,-0.94

# Only part of the results is shown; count on the stated rates, not on these rows.
